Six1-Eya2 blk: Six1/Eya2 interaction inhibition; AID 651725; 360,000 compounds, 0.56% hits; Q15475+O00167; activity change, % (no concentration beside the values); AlphaScreen GST-Six1/His-Eya2 binding, biochemical; active compounds read low; control for the full effect not named in the record; in the data active = activity change below about -65%; inconclusive = about -30% to -65%; inactive = above about -30%; further: on the % scale 0 is the no-effect control and ±100 the full control effect
Target sequence (O00167 whole entry, looked up): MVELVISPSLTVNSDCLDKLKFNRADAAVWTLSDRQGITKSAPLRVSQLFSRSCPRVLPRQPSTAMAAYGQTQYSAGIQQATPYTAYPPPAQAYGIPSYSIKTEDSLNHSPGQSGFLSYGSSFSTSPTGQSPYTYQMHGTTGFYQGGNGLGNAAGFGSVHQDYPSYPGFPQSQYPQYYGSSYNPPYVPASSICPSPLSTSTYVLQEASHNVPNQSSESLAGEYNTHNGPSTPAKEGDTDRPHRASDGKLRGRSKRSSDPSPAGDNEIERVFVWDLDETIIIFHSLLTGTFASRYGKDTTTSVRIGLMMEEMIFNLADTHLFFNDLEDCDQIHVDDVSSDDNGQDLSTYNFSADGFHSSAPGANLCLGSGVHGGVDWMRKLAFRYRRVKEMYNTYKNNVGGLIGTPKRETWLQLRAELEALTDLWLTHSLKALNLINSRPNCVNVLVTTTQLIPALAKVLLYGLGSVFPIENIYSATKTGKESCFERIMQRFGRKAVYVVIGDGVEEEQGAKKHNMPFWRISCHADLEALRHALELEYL
Target sequence (Q15475 whole entry, looked up): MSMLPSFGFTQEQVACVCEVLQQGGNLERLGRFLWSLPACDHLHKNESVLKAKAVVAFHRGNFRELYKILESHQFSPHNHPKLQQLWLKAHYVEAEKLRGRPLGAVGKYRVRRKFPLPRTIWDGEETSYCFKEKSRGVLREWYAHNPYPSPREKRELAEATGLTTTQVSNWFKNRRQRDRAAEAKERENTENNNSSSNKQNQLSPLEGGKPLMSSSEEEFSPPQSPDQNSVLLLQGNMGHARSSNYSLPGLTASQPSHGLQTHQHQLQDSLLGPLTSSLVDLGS
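AlphaScreen luminescence read after one hour at 37 °C in darkness. Pin-transferred compounds met GST-Six1 and His-Eya2 protein (5X stock 250 nM/500 nM) plus glutathione donor and Ni-chelate acceptor beads (5X, 50 ug/mL).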
Sfp inh: Sfp phosphopantetheinyl transferase inhibition; Q9F4F7; Biochemical Sfp PPTase activity, qHTS; Potency, µM, without a hit: max response, negative = inhibition, most hits filed as inhibitors; 310,000 compounds, 3.5% hits; active means well fitted inhibition curve with a large enough effect; inconclusive means small, poorly fitted or top-dose-only effect, or another doubt; inactive means no such curve, though single readings can be large or run the other way;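 further: the enzyme is Sfp with the accession as filed and its product quenches rhodamine fluorescence; potency means the concentration at half of the fitted maximal effect; 0% = enzyme reaction without inhibitor and -100% = no enzyme wells; top concentration of the series not given in the record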
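Buffer: 50 mM Hepes-Na pH 7.6, 10 mM MgCl2, 0.01% Nonidet P-40, 0.01% BSA. Enzyme 15 nM, pre-exposed to compound 15 min; substrates then added and fluorescence change tracked over 30 min.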
D2 potentiator: positive allosteric modulators of human D2 dopamine receptor; potentiation, % (no concentration beside the values); P14416; AID 624464; 360,000 compounds, 0.23% hits; DiscoveRx D2 beta-arrestin cells, luminescence, 90 min; 100% = 57 uM dopamine signal; active = potentiation of 50% or more; inconclusive = 30% to 50%; inactive = 30% or less;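 further: compound concentration not given in the record; tested on top of an EC20 dose of dopamine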
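PathHunter D2 cells, attached overnight at 37 deg C, received compound in DMSO plus dopamine at EC20 (50 nM final) for 90 min at 37 deg C. Beta-arrestin recruitment was read as luminescence after 1 h with detection reagent at ambient temperature.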
D2 agonist: human D2 receptor agonism in beta-arrestin assay; AID 624465; activation, % (test concentration not listed); DiscoveRx PathHunter D2 beta-arrestin, luminescence, 90 min; 100% = 57 uM dopamine signal; P14416; 360,000 compounds, 0.084% hits; in the data active = activation above about 40%; inconclusive = about 15% to 40%; inactive = below about 15%; further: compound concentration not given in the record; the text of the record calls up to 30% inactive
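Agonist mode: compounds alone added to overnight-plated D2 PathHunter cells for 90 min at 37 C, with 57 uM final dopamine (EC100) defining full response. Beta-arrestin recruitment detected by chemiluminescent reagent, read after 1 h at ambient temperature.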
PINK1 modulator: changes PINK1 expression | 410,000 compounds, 0.2% hits | PINK1 immunofluorescence, high-content cytometry, 24 h | Potency, µM (doses to about 76.6 µM), without a hit: at the top dose activation (PINK1 increase), usual class: activators; active = well fitted activation curve with a large enough effect; inconclusive = small, poorly fitted or top-dose-only effect; inactive = flat fitted curve, though single readings scatter; cell line not stated here;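 further: potency means the concentration at half of the fitted maximal effect; % of control where 0% means no effect; nearly all actives have a fitted effect of over 65% in size; a mitochondrial uncoupler was the plate control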
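Cells are seeded, rested 12 hours, then given compound at five concentrations or DMSO for 24 hours. After fixation, blocking and antibody staining, PINK1 amount and mitochondrial localization are scored; CCCP serves as control.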
CtBP-E1A blk: CtBP/E1A binding inhibition; activity change, % (concentration not given with the values); 340,000 compounds, 0.49% hits; AlphaScreen GST-E1A/His-CtBP binding, 1536-well; active compounds read low; control for the full effect not named in the record; in the data active means activity change below about -65%; inconclusive means about -30% to -65%; inactive means above about -30%; further: on the % scale 0 is the no-effect control and ±100 the full control effect
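GST-E1A and His-tagged CtBP (125 nM each as 5X stock) were preincubated with pin-transferred compound for 2 h at 37 °C in the dark, then glutathione donor and nickel acceptor beads were added for 1 h before AlphaScreen reading.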
TRPV1 PAM: human TRPV1 potentiation | Q8NER1 | TRPV1-expressing cells, Fluo-8 calcium influx, capsaicin EC20 potentiation; host cell line not named in the record; control for the full effect not named in the record | potentiation, % at 8.33 µM | 320,000 compounds, 0.02% hits | AID 540277; active means potentiation above 80%; inconclusive means 30% to 80%; inactive means below 30%; further: 0% is about no effect
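TRPV1-expressing cells were cultured overnight at 35.5C and loaded with Fluo-8 calcium dye for 40 to 90 min at room temperature. After a 10 s baseline, compound was added and calcium influx was read kinetically for 3 min (ex 480/em 520 nm).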
* = called active by the depositor; ? = inconclusive; nt = no result given; & = joins results of further samples; [ ] = remark or other dose.

SMILES	Six1-Eya2 blk	Sfp inh	D2 potentiator	D2 agonist	PINK1 modulator	CtBP-E1A blk	TRPV1 PAM
Cc1ccc(S(=O)(=O)NCCOc2nc(N(C)C)nc(N(C)C)n2)cc1	0	7%	0	-2.2	-0.8%	3	nt
Cc1cc(C(=O)N2CCN(c3ccc([N+](=O)[O-])cc3)CC2)c(C)o1	-6	7%	-10	-2.4	0.1%	-10	-14
COc1ccc(NC(=O)O[C@@H](C)[C@@H]2CN3CCc4c([nH]c5ccc(-c6ccc(OC)cc6)cc45)[C@@H]3C[C@@H]2N(C)C(=O)Nc2ccc(OC)cc2)cc1	-29	nt	-4	-7.0	5.1%	?	nt
CCOC(=O)CSc1c(-c2ccccc2)c2cc(Cl)ccc2[nH]c1=O	4	-24%	-6	-5.4	1.2%	-1	9
CS/C(=N\S(=O)(=O)c1cccs1)Nc1ccc(Cl)cc1	-9	8%	-6	-0.4	0.1%	-26	5
O=C(COc1ccc(Cl)cc1)NCc1nnc(SCC(=O)NCCc2ccccc2)o1	0	10%	-13	-0.7	0.4%	6	8
CC(C)c1ccc(C(=O)OCC(=O)c2c(N)n(C)c(=O)n(C)c2=O)cc1	1	nt	30	-0.1	1.8%	-8	nt
CCCC1=Nc2cc(C(=O)NCCCOCC)ccc2Sc2ccccc21	-14	-3%	-9	-1.1	-0.5%	0	-12
CC(O)Cc1cn(CC(=O)N2CCNCC2)nn1 (stereo not given)	2	10%	-3	-3.1	2.2%	-1	?
S=C1NCN(CCc2ccccc2)CN1Cc1ccccc1	-12	-5%	-19	-3.1	3.7%	nt	-8
CCCCC1=CC2=C(c3ccco3)C(=O)C(C)(OC(=O)c3ccc(OC)cc3)C(=O)C2=CN1C(CO)CO (stereo not given)	-5	-17%&-5%	-2	-0.3	-0.9%	-21	-23
C=C(C)C(C)(C#CCN1CCCC1)OC(C)=O (stereo not given)	5	16%	-2	0.3	-0.5%[38.3 µM]	5	-6
CCc1nnc(NC(=O)c2ccc(NC(=O)C(C)C)cc2)s1	1	6%	-6	3.8	-1.1%	-2	5
O=C(CN1C(=O)c2ccccc2S1(=O)=O)N1CCN(c2ccc(F)cc2)CC1	-4	16%	18	-2.2	1.0%	0	-10
O=C(NCC1CC1)c1ccc2sc([C@H]3C[C@H](O)[C@@H](CO)O3)nc2c1	13	nt	-5	-1.7	-0.2%	-10	nt
CC1CCN(C(=O)Cn2nnc(-c3ccccc3)n2)CC1	18	-3%	-2	-0.6	0.6%	nt	-44
COc1cc([N+](=O)[O-])ccc1NC(=O)C[n+]1ccccc1C	3	15%	-22	-1.0	-0.4%	1	0
CCCCCCCCCCCC1=C(O)C(=O)C=C(O)C1=O	-21	-9%&-1%&-3%	3	-4.3	-0.9%&0.1%	-5	nt
COCCN(C(=S)Nc1c(C)cc(C)cc1C)C(C)c1cccs1 (stereo not given)	0	50µM*	-12	-2.9	4.7%	2	1
CCOC(=O)COc1ccc2nsnc2c1	6	13%	-9	-2.4	-0.2%	10	28
Cc1nn(C(=O)C2CC2)c(C)c1Sc1ccc(Cl)cc1	44	0%	-7	0.1	2.3%	38	20
CCOc1cc(/C=C2\CN(C)C/C(=C\c3ccc(O)c(OCC)c3)C2=O)ccc1O	-7	-11%	-38	-10	-1.6%	0	-21
COc1ccccc1C(=O)NNC(=O)c1ccccc1[N+](=O)[O-]	0	1%	-7	-3.5	0.3%	1	7
Nc1c(-c2ccc(Cl)cc2)cnn1-c1cc(C(F)(F)F)cc(C(F)(F)F)c1	3	21%	-6	5.2	6.0%	1	-62
COc1cc(-c2nnc(SCC(=O)c3cc(C)n(CC4CCCO4)c3C)o2)cc(OC)c1OC (stereo not given)	-9	89µM*	-3	-2.0	-0.6%	-17	nt
The listing continues:
SMILES	Six1-Eya2 blk	Sfp inh	D2 potentiator	D2 agonist	PINK1 modulator	CtBP-E1A blk	TRPV1 PAM
COc1cc(-c2nnc(SCC(=O)Nc3ccc(C(=O)O)cc3)o2)cc(OC)c1OC	6	nt	0	1.5	1.6%	1	nt
CN(CC(=O)Nc1ccccc1Cl)C(=O)CN1C(=O)NC(c2ccccc2)(c2ccccc2)C1=O	-1	nt	-1	-1.5	0.4%	nt	24
Cc1ccc(C2=NCCn3c2c2ccccc2[n+]3[O-])cc1	-1	nt	-9	-1.9	0.0%	1	8
Cc1ccc(O)c(Cc2cc(C)cc(Cc3cc(C)ccc3O)c2O)c1	-5	nt	-17	-0.8	-1.5%	-11	nt
Cn1cc(CNC(=O)c2cc(COc3ccc4c(c3)CCCC4)on2)cn1	-2	-4%	1	1.8	4.6%	-6	-9
NCCCC[C@H]1CNC(=O)C(=O)N1CCc1cccc(F)c1	-1	0%	16	-0.5	-0.4%	nt	-4
COc1ccc(CCNC(=O)CSc2nc3ccccc3o2)cc1	-1	8%	3	-2.8	2.7%	3	-2
COc1cccc(CNC(=O)COC(=O)c2nc(Cl)c(Cl)c(Cl)c2Cl)c1	0	nt	-8	-0.6	0.3%	-1	-17
CCc1nc(SCc2ccc(OC)c(Br)c2)n[nH]1	-1	8%	-8	2.0	1.5%	nt	0
N#C/C(=C(/O)CN1CCOCC1)c1nc(-c2ccccc2)cs1	-1	-21%	-11	1.2	nt	11	4
Cc1cccn2c(=O)c3cc(C(=O)NC4CCCC4)c(=N)n(C4CCCC4)c3nc12	11	-2%	-2	-0.6	6.1%	-1	-17
COc1cc(CNCc2cccs2)ccc1OCC(=O)NC(C)(C)C	8	20%	-8	-2.1	1.7%[38.3 µM]	-14	7
COc1nc(NCCc2ccc(OC)c(OC)c2)nc(OC)n1	-11	-3%	13	-2.1	-1.0%	-1	?
CCOC(CNC(=O)C(=O)Nc1cc2c3c(c1)CCN3C(=O)CC2)OCC	2	-1%	-7	7.7	2.1%	-4	1
COc1ccc(CN(CC(=O)NC2CCCC2)C(=O)CCC(=O)Nc2nc(C)cs2)cc1	1	1%	-6	-1.0	1.5%	-12	2
COc1ccc(NC(=O)C[C@H]2C(=O)N(CCc3ccccc3)C[C@@H]2CSC)cc1	5	nt	nt	0.2	1.5%	2	nt
C=CCS(=O)(=O)N1CCCC(N2CCN(c3ccccc3OC)CC2)C1 (stereo not given)	0	11%	-4	-4.3	-0.6%	13	5
COC(=O)c1sc(NC(=O)/C=C/c2ccccc2Cl)nc1C	1	19%	-5	0.0	3.4%	1	7
Cc1ccc(-c2csc(NC(=O)CSc3nc4ccccc4o3)n2)cc1	24	16%	-15	2.3	14%	0	2
CN(C)C(=O)CSc1nc2ccccc2n1CC(=O)N1CCN(c2ccccc2)CC1	1	18%	-14	-2.8	-0.6%	0	-1
CC1(c2ccccc2)NC(=O)N(CC(=O)N2CCc3ccccc32)C1=O (stereo not given)	0	nt	-8	-5.1	0.0%	-1	nt
O=C(O/N=C(\c1ccccc1)c1ccncc1)c1ccccc1F	-2	18%	0	-2.7	0.6%	-5	-7
O=C(CSc1nnc(NC(=O)c2ccc(F)cc2)s1)NC1CCCC1	5	9%	-3	-0.1	6.8%	-4	3
CCn1cc(C(=O)OCC(=O)c2ccccc2)c(=O)c2ccc(C)nc21	-9	28%	-4	-0.7	1.8%	-17	25
CC(=O)Nc1cc(C(=O)NCc2ccco2)ccc1Sc1ccc(C)cc1	-2	-5%	-12	-2.0	0.2%	-11	-19
The listing continues:
SMILES	Six1-Eya2 blk	Sfp inh	D2 potentiator	D2 agonist	PINK1 modulator	CtBP-E1A blk	TRPV1 PAM
O=c1[nH]c(-c2ccccc2)nn1-c1ccc(Br)cc1Br	-2	12%	0	-2.6	1.7%	-7	6
COc1ccc(OC(C)C(=O)Nc2cccc(F)c2)cc1 (stereo not given)	10	-1%	-10	-1.7	0.0%	4	-9
COCCCNC(=S)Nc1ccccc1C	6	0%	2	-4.0	0.5%	6	4
COc1ccc(NC(=O)C2CC(=O)OC23CCCCC3)cc1 (stereo not given)	-4	5%	2	-4.8	-1.1%	4	-5
COC(=O)c1sccc1NC(=S)Nc1cc(C)cc(C)c1	-6	-7%	-7	-1.9	5.2%	16	7
COc1ccc(-c2c(C#N)c(N)nc3c2c(=O)n(C)c(=O)n3C)cc1Cl	6	nt	-1	-0.6	0.6%	-1	nt
Cc1ccc(OCC(=O)Nc2cc(C)on2)c([N+](=O)[O-])n1	2	6%	-2	-4.7	-0.5%	7	-1
CCCCCCNC(=O)CCNC(=O)c1cc(OC)c(OC)c(OC)c1	0	17%	-5	-3.0	0.1%[38.3 µM]	44	14
CC(C)N(Cc1cn(C)nc1-c1cccc(Cl)c1)CC1CCC(=O)N1 (stereo not given)	-3	5%	-9	-9.4	-0.2%	nt	8
Cc1cccc(Nc2ccccc2C(=O)OCC(=O)NCc2ccco2)c1C	-4	-3%	-12	-1.4	16%[38.3 µM]	4	-10
Cn1nnnc1SCC(=O)c1cccs1	23	45µM*	4	1.3	0.0%[38.3 µM]	1	3
Cc1ccc(S(=O)(=O)NCC(=O)OCc2ccccc2)cc1	3	-3%	-1	-1.6	0.3%	6	-11
C[C@H]1CN([C@@H](C)CO)S(=O)(=O)c2ccc(C#CC(C)(C)O)cc2O[C@H]1CN(C)Cc1ccccc1	-23	nt	-5	-3.1	1.4%	2	nt
O=C(Nc1ccc(S(=O)(=O)Nc2nccs2)cc1)c1ccncc1	0	nt	-4	-4.9	1.7%	-5	nt
Cc1c(C(=O)Nc2ccc3c(c2)OCCO3)cnn1C	5	10%	-2	1.8	0.1%	1	-14
Cc1ccc(NC(=S)NNC(=O)c2ccccc2O)c(C)c1	-17	?	-10	-3.4	?	-13	-13
COc1ccc(-n2c(C)cc(C3=NNC(=NC4CC4)SC3)c2C)cc1	1	-108%	-5	-2.9	32µM*	-3	6
O=c1c2ccccc2c(-c2ccccc2)nn1-c1cc(Cl)ccc1[N+](=O)[O-]	-19	14%	-8	-1.2	-1.3%	-14	-6
